# gsp antagonist = qHTS for Antagonists of gsp, the Etiologic Mutation Responsible for Fibrous Dysplasia/McCune-Albright Syndrome: qHTS. AID 624288, 2012. actives 0.4% (n = 340,000). gsp-mutant cells, cAMP HTRF, 30 min; control for the full effect not named in the record. Potency, µM (titrated, usually from 76.9 µM), for the others: at the top dose activity change, negative = inhibition, hits mostly inhibitors; active = falling curve of any shape with a large fitted effect; inconclusive = falling curve, mostly with a smaller effect; inactive = flat or rising curve; cell line not stated here;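 also: intracellular cAMP measured with PDE inhibitor Ro 20-1724 present during compound exposure; potency is read from the fitted curve at half-maximal effect; % is scaled to controls: 0 for no effect and ±100 for the full control effect; nearly all actives have a fitted effect of over 65% in size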
#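 HTRF cAMP read-out (cAMP-d2 plus anti-cAMP antibody-K in lysis buffer, 30 min RT). Before lysis, cells are exposed to compounds with […] for 30 min at 37C in DPBS containing Ca/Mg, BSA and Tween 20.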
# Sfp PPTase inh = qHTS Assay for Inhibitors of Bacillus subtilis Sfp phosphopantetheinyl transferase (PPTase); Potency, µM, for the others: max response, negative = inhibition, most hits filed as inhibitors; AID 1490, 2009; actives 3.5% (n = 310,000); Biochemical Sfp PPTase activity, qHTS; active = well fitted inhibition curve with a large enough effect; inconclusive = small, poorly fitted or top-dose-only effect, or another doubt; inactive = no such curve, though single readings can be large or run the other way;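 also: the enzyme is Sfp with the accession as filed and its product quenches rhodamine fluorescence; potency is read from the fitted curve at half-maximal effect; 0% = enzyme reaction without inhibitor and -100% = no enzyme wells; top concentration of the series not given in the record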
#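 Buffer: 50 mM Hepes-Na pH 7.6, 10 mM MgCl2, 0.01% Nonidet P-40, 0.01% BSA. Enzyme 15 nM, pre-exposed to compound 15 min; substrates then added and fluorescence change tracked over 30 min.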
# PINK1 modulator = A Quantitative High throughput Screen to Identify Chemical Modulators of PINK1 Expression. PINK1 immunofluorescence, high-content cytometry, 24 h. Potency, µM (top dose mostly 76.6 µM), without a hit: at the top dose activation (PINK1 increase), actives largely listed as activators. actives 0.2% (n = 410,000). AID 624263, 2012; active = well fitted activation curve with a large enough effect; inconclusive = small, poorly fitted or top-dose-only effect; inactive = flat fitted curve, though single readings scatter; cell line not stated here;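 also: potency is read from the fitted curve at half-maximal effect; % of control where 0% means no effect; nearly all actives have a fitted effect of over 65% in size; a mitochondrial uncoupler was the plate control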
#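 Fluorescence from anti-PINK1 antibody, together with nuclear and cell stains, was scanned on a laser-scanning cytometer. Before staining, stable-line cells were incubated 24 hours with compounds at 5 concentrations; primary antibody 12 h at 10 degrees C.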
# gsp agonist = qHTS for Agonist of gsp, the Etiologic Mutation Responsible for Fibrous Dysplasia/McCune-Albright Syndrome: qHTS | gsp mutant cells, cAMP HTRF, 30 min; control for the full effect not named in the record | Potency, µM (highest dose often 76.9 µM), for the others: at the top dose activation (cAMP increase), hits mostly activators | actives 0.13% (n = 340,000) | AID 624287, 2012; active = well fitted activation curve with a large enough effect; inconclusive = small, poorly fitted or top-dose-only effect, or another doubt; inactive = no such curve, though single readings can be large or run the other way; cell line not stated here;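 also: phosphodiesterase inhibitor Ro 20-1724 added with compounds to block cAMP breakdown; potency is read from the fitted curve at half-maximal effect; nearly all actives have a fitted effect of over 60% in size; about a fifth of the inactives were tested at one dose only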
#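 Cells stably selected in G418 were plated at 2000/well, grown 16-24 hr, then given compounds in DMSO with the PDE inhibitor […] (300 uM solution added) for 30 min at 37C; cAMP was read by HTRF.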
# ClpP mod = qHTS Assay for Activators of ClpP; Potency, µM (doses to about 57.5 µM), for the others: top-dose activity change, negative = active; AID 651965, 2013; purified B. subtilis ClpP, FRET peptide cleavage, 20 min; actives 1.9% (n = 340,000); active = well fitted falling curve with a large enough effect; inconclusive = small, poorly fitted or top-dose-only effect; inactive = no such curve, though single readings can be large or run the other way; also: potency is read from the fitted curve at half-maximal effect; the source files actives as falling curves though it sought activators and does not explain the sign; nearly all actives have a fitted effect of over 65% in size; many hits overshoot -100%
# Target sequence (P80244 whole entry, looked up): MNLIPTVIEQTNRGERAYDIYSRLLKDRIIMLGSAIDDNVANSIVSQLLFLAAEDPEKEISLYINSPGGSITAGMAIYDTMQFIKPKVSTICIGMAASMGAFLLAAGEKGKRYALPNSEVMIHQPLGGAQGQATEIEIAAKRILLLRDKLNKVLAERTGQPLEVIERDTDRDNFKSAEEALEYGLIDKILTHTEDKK
#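 Buffer: 100 mM Tris/HCl pH8, 100 mM KCl, 0.05% low protease BSA, 2.5% glycerol, 0.01% Tween-20. ClpP 10 microg/mL final; 20 min RT; delta FRET normalized to ADEP and DMSO controls.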
# D2 ag = Beta-Arrestin HTS for Positive Allosteric Modulators of the Human D2 Dopamine Receptor: Agonists; DiscoveRx PathHunter D2 beta-arrestin, luminescence, 90 min; 100% = 57 uM dopamine signal; activation, % (no concentration beside the values); actives 0.084% (n = 360,000); AID 624465, 2012; in the data active = activation above about 40%; inconclusive = about 15% to 40%; inactive = below about 15%; also: compound concentration not given in the record; the text of the record calls up to 30% inactive
# Target sequence (P14416 whole entry, looked up): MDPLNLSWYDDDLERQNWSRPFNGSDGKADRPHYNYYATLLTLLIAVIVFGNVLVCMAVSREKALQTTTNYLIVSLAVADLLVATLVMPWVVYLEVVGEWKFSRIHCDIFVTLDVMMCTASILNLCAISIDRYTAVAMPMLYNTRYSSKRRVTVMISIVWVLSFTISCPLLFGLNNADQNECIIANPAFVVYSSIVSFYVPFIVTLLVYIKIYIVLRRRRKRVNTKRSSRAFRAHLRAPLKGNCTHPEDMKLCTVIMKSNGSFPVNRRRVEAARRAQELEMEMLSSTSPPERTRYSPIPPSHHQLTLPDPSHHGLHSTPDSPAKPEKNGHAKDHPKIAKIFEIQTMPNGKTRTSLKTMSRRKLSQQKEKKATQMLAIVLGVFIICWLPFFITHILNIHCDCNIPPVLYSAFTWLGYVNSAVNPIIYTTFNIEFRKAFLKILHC
#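 Agonist mode: compounds alone added to overnight-plated D2 PathHunter cells for 90 min at 37 C, with 57 uM final dopamine (EC100) defining full response. Beta-arrestin recruitment detected by chemiluminescent reagent, read after 1 h at ambient temperature.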
# Menin-MLL FL inh = qHTS Assay for Inhibitors Targeting the Menin-MLL Interaction in MLL Related Leukemias: Competition With Fluorescein Labeled MLL-derived Peptide. AID 1766, 2009. 290,000 tested, under 10 active. FP activity change, % at 61.4 µM. Fluorescence polarization, fluorescein-MLL peptide displacement from menin; inconclusive = falling polarisation curve, or a change in total fluorescence; inactive = total fluorescence flat and polarisation flat or rising; no compound was filed as active; the % refers to the polarisation; negative = inhibition;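 also: % of control where 0% means no effect; inhibitors lower the polarisation; unlabelled MLL peptide was the positive control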
# Active calls of the source: *; ? = inconclusive; / = not tested or not shown; [ ] = dose if it differs, or a comment.
SMILES,gsp antagonist,Sfp PPTase inh,PINK1 modulator,gsp agonist,ClpP mod,D2 ag,Menin-MLL FL inh
CSCCC(NC(=O)c1ccc(Cl)cc1)C(=O)O (configuration not stated),8%,14%,1.6%,5%,1.5%,-3.0,-4.1
Cc1cnc(C(=O)N2CCN(c3ccc(C(F)(F)F)cn3)CC2)cn1,5%,6%,0.5%,-3%[15.4 µM],-4.3%,0.4,-0.4
Cc1c(NC(=O)c2c(NC(=O)CNC3CC3)sc3c2CCCC3)c(=O)n(-c2ccccc2)n1C,2%,3%,0.2%,-10%[15.4 µM],-19%,-1.4,2.8
O=C(COC(=O)c1ccccc1C(=O)c1ccccc1)Nc1ccc(SC(F)F)cc1,-12%,23%,3.8%,3%,-3.4%,-4.9,-0.8
Cc1ccc(-n2ncc3c(=O)[nH]c(SCC(=O)N4CCCCC4)nc32)cc1,-4%,4%,-1.3%,25%,0.3%,-6.1,0.4
CCOCCn1c(CN2CCN(c3ccc(OC)cc3)CC2)nc2c1c(=O)n(C)c(=O)n2C,-15%,/,-2.1%[38.3 µM],-43%[inhibitor],-0.1%,-1.4,/
Cc1ccnc(NC(=O)/C=C/c2ccccc2Cl)c1,-16%,-26%,1.5%,13%[15.4 µM],/,-4.9,3.5
COc1cc2c(cc1OC)C(c1cc(OC)c(OC)c(OC)c1)NCC2 (configuration not stated),-7%,-2%,-1.7%,-7%,-2.5%,-1.8,-3.1
Cc1cccnc1Nc1nc(-c2ccccc2)cs1,-3%,50µM*,9.0%,-13%,-0.2%,-2.9,-0.5
CN(Cc1ccccc1)C(=O)c1ccccc1NC(=O)c1ccccc1,7%,25%,-2.1%[38.3 µM],21%,-1.0%,-0.5,-6.9
Cc1ccccc1C(=O)NC1CCN(C(=O)NC2CCCCC2)CC1,9%,6%,2.1%,-22%,/,8.5,-5.9
O=C(CN(C(=O)CCC(=O)Nc1nccs1)c1ccc(F)c(Cl)c1)NCC1CCCO1 (configuration not stated),6%,1%,-0.9%,-7%[15.4 µM],/,-1.6,0.3
CC(C)Oc1ccc(S(=O)(=O)N2CCOCC2)cc1NC(=O)C(C)Oc1ccc(F)cc1 (configuration not stated),-15%,/,3.5%,3%,?,-7.4,/
Cc1ccc(N2CCN(C3=NC(=O)/C(=C\c4cccs4)S3)CC2)cc1,-20%,-2%,1.3%,-3%,2.1%,-3.0,0.5
Cc1oc2c(c(C)cc3oc(=O)c(CC(=O)N[C@@H](CCCNC(N)=O)C(=O)O)c(C)c32)c1C,3%,7%,1.7%,-9%,-26%,1.8,-8.2
CC(C)c1ccc(S(=O)(=O)Nc2ccc3c(c2)OCO3)cc1,-9%,/,4.6%,-4%,-0.4%,1.8,/
O=C(O)c1cc(S(=O)(=O)N2CCCCC2)ccc1N1CCOCC1,14%,/,2.0%,6%,1.2%,0.5,/
O=C(Nc1ccc(NC(=O)c2cccs2)cn1)c1ccccc1,-14%,26%,1.3%,1%,-0.4%,1.9,-0.1
CC1(C)C(=O)Nc2ccccc2N1C(=O)COC(=O)c1cccc(O)c1,-9%,/,-0.8%,5%,0.4%,8.8,/
O=C(CCNc1cccc(Cl)c1)c1ccco1,-19%,8%,?,17%,-3.2%,-1.4,3.0
O=C1C2C3c4ccccc4C(c4ccccc43)[C@@H]2c2nc3ccccc3n21 (some centres not stated),-17%,5%,3.0%,-15%,-2.8%,0.8,4.7
COc1ccccc1Cc1c(-c2ccco2)nc2c(C)cc(Br)cn12,/,/,-0.9%,/,-5.9%,-10,/
O=C(CNc1ccc2ccccc2c1)N/N=C/c1ccccn1,-7%,-19%,1.3%,35%,/,4.0,4.3
CN(C(=O)COC(=O)C1COc2ccccc2O1)c1c(N)n(Cc2ccccc2)c(=O)[nH]c1=O (configuration not stated),7%,/,-0.1%,4%[15.4 µM],-1.4%,-3.1,/
COc1ccc(NC(=O)NC2(C(=O)N3CCCC(C)C3)CCCCC2)cc1 (configuration not stated),14%,8%,0.5%,-6%[15.4 µM],/,0.2,/

# Gathered by group, those above containing a furan ring, fused or not (three)
SMILES,gsp antagonist,Sfp PPTase inh,PINK1 modulator,gsp agonist,ClpP mod,D2 ag,Menin-MLL FL inh
Cc1oc2c(c(C)cc3oc(=O)c(CC(=O)N[C@@H](CCCNC(N)=O)C(=O)O)c(C)c32)c1C,3%,7%,1.7%,-9%,-26%,1.8,-8.2
O=C(CCNc1cccc(Cl)c1)c1ccco1,-19%,8%,?,17%,-3.2%,-1.4,3.0
COc1ccccc1Cc1c(-c2ccco2)nc2c(C)cc(Br)cn12,/,/,-0.9%,/,-5.9%,-10,/

# Continuation:
SMILES,gsp antagonist,Sfp PPTase inh,PINK1 modulator,gsp agonist,ClpP mod,D2 ag,Menin-MLL FL inh
COc1ccc(CCC(=O)OCC(=O)NCc2ccc3c(c2)OCO3)cc1,5%,/,1.4%,-1%,0.2%,-2.3,/
COc1ccc(CNC(=O)N2CCN(c3cccc(C)c3C)CC2)cc1OC,2%,-1%,0.3%,?,/,-1.2,-0.3
Cc1nn(-c2ccccc2)c(C)c1NC(=O)COC(=O)c1ccccc1,?,/,-0.1%,-45%[inhibitor],0.0%,-3.9,/
CC(Oc1ccc(F)cc1)C(=O)Nc1ccccc1C(=O)NC1CC1 (configuration not stated),-8%,/,1.5%,-6%[15.4 µM],-2.3%,0.5,/
CC(OC(=O)CN1C(=O)NC2(CCCC2)C1=O)C(=O)Nc1cccc(Cl)c1Cl (configuration not stated),5%,/,4.5%,-7%,1.6%,-1.4,/
O=C(NCc1cc(Cl)cc(Cl)c1)c1ccc2nc([C@@H]3O[C@H](CO)[C@@H](O)[C@H]3O)[nH]c2c1,/,/,1.0%,/,-3.9%,-2.4,/
O=C(COc1ccc(Cl)cc1Cl)N/N=C/C1CC=CCC1 (configuration not stated),1%,9%,5.7%,23%,-1.5%,-6.4,/
Cn1c(=O)c(CCc2ccccc2)nc2cnc(Oc3ccccc3)nc21,/,-9%,-0.1%,/,/,/,7.9
O=S(=O)(NCC1CCN(c2ccc(S(=O)(=O)N3CCOCC3)cc2)CC1)c1ccccc1,-5%,-6%,0.1%,3%[15.4 µM],-29%,-2.9,0.7
NC(=O)c1cc(S(=O)(=O)N2CCCC2)ccc1OCCOc1ccccc1,-7%,/,1.8%,-1%,-3.7%,7.8,/
CCCOc1ccc(C(=O)N2CC3(CC(c4cccc(NC(=O)[C@@H]5CCC(=O)N5)c4)=NO3)C[C@H]2C(=O)NC2(C(N)=O)CC2)cc1 (some centres not stated),5%,20%,0.1%,?,-5.3%,-0.2,-0.6
CCn1c(-c2ccc(OC)c(OC)c2)n[nH]c1=S,9%,?,-1.6%,-2%,-9.4%,-1.6,0.1
COC(=O)c1cc(=O)n(CCc2ccc(OC)cc2)c(=Nc2ccc(F)c(Cl)c2)s1,5%,0%,11%,-25%,-2.1%,-6.1,-6.1
COCCn1c(-c2cccs2)csc1=Nc1cccnc1,-8%,?,1.6%,1%,/,1.2,5.7
COc1ccccc1NC(=O)Nc1nn(C)c2cccc(OC)c12,-3%,-13%,0.9%,21%,/,13,0.7
COCCOc1ccc(C(F)(F)F)cc1NC(=O)CN1C(=O)NC(C)(c2ccc3c(c2)OCO3)C1=O (configuration not stated),-23%,/,-0.6%,18%,1.2%,-7.0,/
COc1ccc(OC)c2nc3c(C(=O)NCCN(C)C)cccc3nc12,?,/,-6.9%,?,-0.8%,-3.0,/
COc1ccc(NC(=O)COC(=O)C2CCN(S(=O)(=O)c3ccccc3)CC2)cc1Cl,-15%,/,-0.3%,-21%,-0.4%,-2.5,/
Cc1noc(C)c1COC(=O)c1ccc2c(c1)OCO2,10%,-12%,-0.3%,?,-11%,0.9,-1.3
Cc1ccc(C)c(-n2cc(-c3ccc(Cl)cc3)nc2SCC(=O)NC2CCS(=O)(=O)C2)c1 (configuration not stated),-8%,8%,2.8%,-1%,2.1%,0.2,3.8
CCCCN1C2=NCCCN2c2cc(C)c(C)cc21,1%,21%,-2.3%,-15%,-1.4%,-2.2,3.7
CCOC(=O)CC1C(=O)NCCN1C(=O)NC1CCCCC1 (configuration not stated),-2%,6%,0.0%[38.3 µM],-4%,-0.7%,-0.4,-0.4
CCOC(=O)c1ccc(Nc2ncnc3ccccc23)cc1,2%,4%,2.7%,4%,16%,-4.1,1.2
COC(=O)c1ccccc1NC(=O)CSc1n[nH]c(-c2cccnc2)n1,12%,19%,-0.5%,15%[15.4 µM],/,-0.3,-2.1
CCOC(=O)C1CCCN(S(=O)(=O)c2ccc(Br)s2)C1 (configuration not stated),-20%,-12%,-0.9%[38.3 µM],1%,-0.3%,-2.2,0.3

# Further records.
SMILES,gsp antagonist,Sfp PPTase inh,PINK1 modulator,gsp agonist,ClpP mod,D2 ag,Menin-MLL FL inh
COCc1cc(/C=N\NC(=O)Cc2ccc(OC)cc2)ccc1OC,6%,3%,0.7%,-34%[inhibitor],-1.3%,-3.0,1.2
O=C(Nc1cccc(C(F)(F)F)c1)Nc1nnc([C@H]2C[C@H](O)[C@@H](CO)O2)s1,/,/,0.6%,/,-4.8%,-3.9,/
COc1cc2cc(C#N)c(SCC(=O)N3CCOCC3)nc2cc1OC,13%,13%,1.1%,29%,-27%,-3.1,2.5
CC(=O)c1ccc(NC(=O)C2CCCN(S(=O)(=O)c3c(C)[nH]c(=O)[nH]c3=O)C2)cc1 (configuration not stated),11%,19%,-2.8%,2%,/,5.0,0.3
CCc1nc2ccc(C(=O)N(CC)CCN(C)C)cn2c1N(C)CCCc1ccccc1,/,/,0.1%,/,-2.6%,-4.3,/
C/C(=N\NC(=O)c1ccc(N(C)C)cc1)c1cccnc1,-12%,-10%,-1.8%,1%,-0.2%,-3.5,3.5

# From PubChem BioAssay
